Bioassay records deposited in PubChem by Fisher Drug Discovery Resource Center.
NPYLR7 ag – agonists of mosquito NPYLR7 receptor, primary screen, cell-based, Aedes aegypti, calcium fluorescence, mosquito biting behavior; Aedes aegypti neuropeptide Y-like receptor 7 (NPYLR7); HEK293T NPYLR7/Galpha15, GCaMP6s calcium fluorescence; activation, % at 10 µM; actives 0.15% (n = 270,000); AID 1259423, 2018; in the data active = activation above about 40%;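 also: 0% = vehicle and 100% = reference agonist at the receptor; some compounds past the cut are filed as inactive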
NPYLR7 ag max-min – also measured in NPYLR7 ag; calls as there; activation, %; measured here: Max-Min RFU normalised activation; some inactives read as strong as hits;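 span of the calcium signal over five minutes; 0% = vehicle and 100% = native peptide agonist; compound fluorescence can raise it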
The depositor's hits bear a star; & = joins results of further samples. A portion of the library (hit frequency here may not be typical).

structure | NPYLR7 ag max-min | NPYLR7 ag
O=C(NC1CC(=O)N(Cc2cccc(F)c2)C1)c1n[nH]c2c1CCCC2 (centres undefined) | 6 | 9
O=C(O)C1CCCN(c2ncnc3c2CN(Cc2ccccc2)CC3)C1 (centres undefined) | 4 | 11
Cc1oc(-c2ccccc2)nc1C(=O)OCC(=O)NC(=O)NC1CCCCC1C (centres undefined) | 6 | 9
CCOC(=O)CCc1c(C)nc2ncnn2c1N1CCN(C(=O)c2ccc3c(c2)OCO3)CC1 | -10 | -8
c1nc(Sc2nnnn2C2CCCC2)c2ccsc2n1 | 13 | 9
COc1ccc(C(=O)N2CCN(c3cc(OC)ccc3OC)C(=O)C2C)cc1 (centres undefined) | 18 | 8
O=C1NC(=S)N/C1=C\c1ccc([N+](=O)[O-])cc1 | -5 | 1
COc1cc(C2N(C)c3ccccc3N2C)cc(OC)c1OC | 12 | 20
Cc1ccc(NC(=O)CC(NCCCOC(C)C)C(=O)O)cc1 (centres undefined) | -7 | -7
Cn1c(C2C(=N)N3CSCC3C2=O)[n+](C)c2ccccc21 (centres undefined) | 0 | 1
CC(NC(=S)NC(=O)c1ccccc1I)c1ccccc1 (centres undefined) | 7 | 5
Nc1c(Br)cc(F)cc1Br | 11&-1 | 4&-1
COc1ccnc(N2CCC(CO)(Cc3cccc(F)c3)CC2)n1 | -7 | -4
Cc1ccc(N2CCC(Nc3cncc(Cl)n3)CC2)nc1 | -12 | -9
O=C(Nc1ccccc1)c1cc(C2CCCCN2C(=O)CCCc2ccccc2)on1 (centres undefined) | -2 | 0
CN1CCOC(CCNC(=O)c2ccc3c(c2)N(C)C(=O)CO3)C1 (centres undefined) | 0 | 1
CC(C)Cc1nnc2n1CCN(C(=O)c1ccccc1-c1ccccc1)C2 | -6 | -4
C=CCn1c(=S)[nH]c2sccc2c1=O | -3 | -4
CC(C)NC(=O)CN1C(=O)CSC1c1ccc(F)cc1F (centres undefined) | -3 | -4
COc1ccc(-c2cnc3ncnn3c2N2CCN(C(=O)Cc3ccc(OC)c(OC)c3)CC2)cc1 | 17 | 28
CCn1nc(C)c(NC(=O)CN(C)Cc2csc(-c3ccccc3)n2)c1C | 7 | 19
Cn1ncc2c(NCc3cc(C(C)(C)C)n[nH]3)nc(C(C)(C)C)nc21 | 4 | 6
OCC1(CCc2ccccc2)CCN(c2ncnc3[nH]ccc23)CC1 | -6 | -3
O=S1(=O)N=C(CN2CCCc3ccccc32)Nc2ccccc21 | 9 | 9

Filtered by structure: those above containing fluorine
structure | NPYLR7 ag max-min | NPYLR7 ag
O=C(NC1CC(=O)N(Cc2cccc(F)c2)C1)c1n[nH]c2c1CCCC2 (centres undefined) | 6 | 9
Nc1c(Br)cc(F)cc1Br | 11&-1 | 4&-1
COc1ccnc(N2CCC(CO)(Cc3cccc(F)c3)CC2)n1 | -7 | -4
CC(C)NC(=O)CN1C(=O)CSC1c1ccc(F)cc1F (centres undefined) | -3 | -4

(list continues)
structure | NPYLR7 ag max-min | NPYLR7 ag
Cc1[nH]c2ccccc2c1C1=CSC2=NS(=O)(=O)CCN12 | 2 | 4
FC(F)(F)c1cccc(Nc2nnnc3c2cnn3-c2ccccc2)c1 | 1 | 3
CN(C)S(=O)(=O)c1ccccc1NC(=O)C1CCc2ccccc21 (centres undefined) | 0&2 | 1&8
C=CCN(CC(=O)N(CCc1ccc(OC)c(OC)c1)Cc1ccc(C)o1)C(=O)C1CC1 | 12 | 12
Cc1ccsc1C(=O)OCc1cc(=O)n2ccsc2n1 | 1 | -1
COc1cccc(NC(=O)C2(C)CCN2C(=O)Cc2cc(C)cc(C)c2)c1 (centres undefined) | -5 | -5
Cc1ccc2cc(NC(=O)C3(C)CCN(C)C3)ccc2n1 (centres undefined) | -2 | 0
CC(C)(CNC(=O)c1coc(COc2ccc(F)cc2)n1)N1CCOCC1 | 0 | 1
CC(C)c1nccc(CN2CCCC(Cn3ccnc3)C2)n1 (centres undefined) | 10 | 20
Cc1cc(C)cc(-n2ncc3c(=O)n(CC(=O)N4CCCCC4)cnc32)c1 | 3 | 12
CCn1c(SCC(=O)NCCc2ccccc2)nc2c([nH]c3ccccc32)c1=O | -2 | -1
COc1ccc2c(C)cc3n[nH]c(=S)n3c2c1 | 4 | 5
CC(C)(C)CC(=O)Nc1nnc(SCc2ccc(C#N)cc2)s1 | -1 | -4
CCc1cnc(C)nc1/C=C/c1ccccc1 | -6 | -5
CCc1ccc(-c2nn(CC(=O)Nc3ccccc3OC)c(=O)c3nc(C)sc23)cc1 | -1 | 1
COc1cc(NC(=O)CN(Cc2cnn(C)c2)C2CC2)ccc1Cl | -7 | -5
Cc1nnc(SCc2cc(=O)n3cc(Br)ccc3n2)s1 | 1 | 4
CCn1nc(C)c(C(C)NC(=O)C2CCC(OC)CC2)c1C (centres undefined) | 1 | 4
O=C(NCc1cc(-c2cc3ccccc3o2)on1)c1ccc(F)c(F)c1 | -2 | 0
CCOC(=O)c1c(-c2ccc(OC)cc2)csc1NC(=O)CN1CCOC(C)C1 (centres undefined) | -3 | 1
CCCOc1ccc(C(=O)Oc2cccc3cccnc23)cc1 | -15 | -11
COCc1cc(N2CCN(c3ccccc3Cl)CC2)nc(SCc2ccc(C(=O)NCCc3ccccn3)o2)n1 | 1 | -4
CCOC(=O)c1ccc(NC(=O)C2=C(C)Nc3nc(CCCO)nn3C2c2cccc(C)c2)cc1 (centres undefined) | -4 | 0
CC(c1cccc(-c2nccc(CCC(F)(F)F)n2)c1)N1CCCC1 (centres undefined) | 2 | 3
CC(C)c1nc(C(C)NC(=O)C2CCS(=O)(=O)C2)cs1 (centres undefined) | -5 | 1
CCOC(=O)C1CCN(C(=O)c2cccc(CSc3nc(C)cc(N(C)CCc4ccc(OC)c(OC)c4)n3)c2)CC1 | 5 | 6
CCOC(=O)C1=C(CC)NC2=C(C(=O)CCC2)C1c1cccc(I)c1 (centres undefined) | -5 | -2
COc1ccc(C(=O)N(Cc2cccc(OS(=O)(=O)c3ccc(F)cc3)c2)CC(C)C)cc1 | 4 | -5
O=C1OC(c2ccc(Cl)c(Cl)c2)=N/C1=C/C=C/c1ccccc1 | -3 | 0
COc1ccc(-n2ncc([C@H]3N[C@](CO)(CCO)[C@H]4CN(C)C[C@@H]34)c2C)cc1 | -2 | 2
CCCN(Cc1cc(NC(=O)Nc2ccc(C(F)(F)F)cc2)ccc1N(C)C)C(=O)C1CC1 | 8 | 0
CCn1c(=O)[nH]c2cc(Cl)c(Cl)cc21 | -27 | 1
CSCC(=O)NCCC(=O)Nc1cc(Br)ccc1C | 4 | 6
COc1cc2c(NC3CCN(C)CC3)nc(N3CCCN(C)CC3)nc2cc1OCCCN(C)C | -12 | -12
CC(C)c1nccc(CN2CCN(c3ncnc4ccccc34)CC2)n1 | 4 | 3
CC(C)Cc1cc(C(=O)NC(C)c2cn3ncsc3n2)n[nH]1 (centres undefined) | 13 | 15
O=C(CCc1ccccc1F)Nc1cc2c(cc1Cl)OCO2 | -4 | -3
Nc1cc(-c2ccc(Cl)cc2)nn1-c1ccc(C(=O)NC(c2ccccc2)c2ccccn2)cc1 (centres undefined) | -9 | -8
CCCn1c(SCc2cc(=O)n3cc(Br)ccc3n2)n[nH]c1=O | 10 | -2
CCCN1C(=O)C(C)(C)COc2ccc(NC(=O)Cc3ccc(Cl)cc3)cc21 | 15 | 17

Reformatted with two lines to a compound: entries from further up.
Every second line gives: NPYLR7 ag max-min | NPYLR7 ag
COc1cc2c(NC3CCN(C)CC3)nc(N3CCCN(C)CC3)nc2cc1OCCCN(C)C
  -12 | -12
CC(C)c1nccc(CN2CCN(c3ncnc4ccccc34)CC2)n1
  4 | 3

Continuation:
structure | NPYLR7 ag max-min | NPYLR7 ag
Cc1sc2c(c1Br)-c1c(sc(C)c1Br)CSC2 | -3 | 0
CCCn1c(SCc2cccc3cccnc23)n[nH]c1=O | 4 | 7
O=C(c1cccs1)N1CCCN(c2nc(C3CCOCC3)nc3c2cnn3-c2ccccc2)CC1 | -2 | -9
CC1CCN(C(=O)CSc2nnc(C(C)Oc3ccc(F)cc3)o2)CC1 (centres undefined) | 21 | 0
CC(c1ccc(Cl)cc1)N(C(=O)C1CCN(C(=O)N2CCCC2)CC1)c1ccccc1 (centres undefined) | 0 | 0
CS(=O)(=O)c1ccc([C@@H](O)[C@@H](CF)NC(=O)C(Cl)Cl)cc1 | -4 | 0
Cc1ccc(C(=O)ON=C(N)Cc2ccc(Cl)cc2Cl)cc1Cl | 9 | 3
NS(=O)(=O)c1ccc(CNC2CC(=O)N(c3ccc(Br)cc3)C2=O)cc1 (centres undefined) | -14 | -7
Cc1ccc(N(C)C(C)C)c(C(=O)NS(C)(=O)=O)c1 | 6&4 | 11&4
CNc1ncc(-c2cc(C(=O)N3CCN(C)C(=O)C3C)c3ccc(F)cc3n2)cn1 (centres undefined) | -8 | -4
CN(C)CCC1CN(C(=O)CCC2CCCCC2)CCO1 (centres undefined) | 7 | 17
CCOC(=O)COc1ccc(Br)cc1C=C1C(=O)NC(=O)NC1=O | -13 | -9
O=C(Nc1ccccc1)N1CCC(=S)Nc2ccccc21 | -1 | -1
CC(C)NC(=O)C1(C)CCN1C(=O)c1ccccc1 (centres undefined) | 1 | 3
Cc1c(Br)c([N+](=O)[O-])nn1CC(=O)Nc1cc(C(F)(F)F)ccc1Cl | -8 | -4
COc1cccc(CN2CCC2(C)C(=O)Nc2ccc(Cl)c(Cl)c2)c1OC (centres undefined) | 0 | 6

Single records (already shown):
Shown for CNc1ncc(-c2cc(C(=O)N3CCN(C)C(=O)C3C)c3ccc(F)cc3n2)cn1 (centres undefined) : NPYLR7 ag max-min: -8; NPYLR7 ag: -4
Shown for Cc1ccc(N(C)C(C)C)c(C(=O)NS(C)(=O)=O)c1 : NPYLR7 ag max-min: 6&4; NPYLR7 ag: 11&4

(list continues)
structure | NPYLR7 ag max-min | NPYLR7 ag
Cc1c(C(=O)N2CCC(n3c(=O)oc4ccc(Cl)cc43)CC2)oc2ccccc12 | 2 | 4
COc1ccc(-c2cc(C(=O)NC3CC3)ccn2)cc1Cl | 3 | 5
O=C(NCCNC(=O)C1CCN(C(=O)c2ccc(-c3ccccc3)cc2)CC1)c1ccccc1 | 22 | 11
CN(Cc1ccc2nonc2c1)C(=O)c1ccc2nc(Cc3ccccc3F)oc2c1 | -2 | 3
N#Cc1ccccc1NC(=O)/C=C/c1ccc([N+](=O)[O-])s1 | 6 | 14
Cc1cccc(CN2CCN(c3cccc(C(F)(F)F)c3)C(=O)C2C)c1 (centres undefined) | 0 | 0
O=C1CC(c2nc3c(s2)CCCC3)c2cc3cn[nH]c3cc2N1 (centres undefined) | 5 | 14
COc1cc(C(=O)NCc2ccc(Cl)s2)ccc1OC1CCN(C(C)=O)CC1 | 4 | 6
Cc1nc(-n2nc(-c3cccs3)cc2NC(=O)c2ccc(F)cc2)[nH]c(=O)c1C | -4 | -2
CCOC(=O)C1=C2NC(=O)c3ccccc3N2C(=O)C1 | 2 | 0
CCC(C(=O)N1CCN(c2c(-c3ccc(OC)c(OC)c3)cnc3ncnn23)CC1)c1ccccc1 (centres undefined) | -1 | 1
CN1CCN(c2ncccc2CNC(=O)c2cccc(-n3cnnc3)c2)CC1 | -1 | -1
O=C(Nc1ccc(Oc2ccccc2)cc1)c1cc2c(nc1Cl)CCC2 | -6 | -1
Cn1nc(C(C)(C)C)cc1C(=O)N1CCCCC1c1cc(C(=O)Nc2ccncc2)no1 (centres undefined) | 7 | 9
CCN(CC)C(=O)COC(=O)c1cccc(N2CC(=O)C(c3nc4ccccc4s3)C2=N)c1 (centres undefined) | -10 | -1
CCN(CC)C(=O)Oc1ccc2c(ccn2Cc2ccccc2I)c1-c1cc(C)cc(C)c1 | -3 | 15
CC1CN(c2cc(Cl)nc(SCC(=O)NCCCN3CCOCC3)n2)CCN1C(=O)c1ccccc1Cl (centres undefined) | 3 | -2
CC1(C)CC(NS(=O)(=O)c2ccc(Br)cc2)CC(C)(C)N1 | 10 | 10
CC(=O)Nc1cccc(C(=O)N(C)C2CCS(=O)(=O)C2)c1 (centres undefined) | 0 | 0
O=C(Nc1nc2ccc(NS(=O)(=O)c3ccc4[nH]cc(C(=O)O)c(=O)c4c3)cc2s1)c1ccc(Cl)cc1Cl | 15 | 12
COc1ccccc1N1C(=O)CSC1c1ccccc1NC(=O)C(C)(C)CCl (centres undefined) | 22 | 16
Cc1ccc(CNC(=O)CN2C(=O)NC(C)(c3ccco3)C2=O)cc1 (centres undefined) | -7 | -8
Cc1nc(C)n(CC(C)C(=O)N(C)Cc2ccc3nsnc3c2)n1 (centres undefined) | -3 | -3
CCN1C(=O)NC(c2ccc(Cl)cc2)C2=C1CN(C(Cc1ccccc1)C(=O)NCCOc1ccccc1)C2=O (centres undefined) | 0 | -2
COc1ccc(CNCC2(C(N)=O)CCCC2)c(OC(F)F)c1 | -6 | -5
NC1CCN(c2ccccc2C(=O)NCCN2CCOCC2)CC1 | 7 | -3
CNCC(=O)N1CCCC(OCc2ccccn2)C1 (centres undefined) | -6 | 0
CCCC(C)CN1CCC(n2cc(-c3ccccc3)nn2)CC1 (centres undefined) | 20 | 2
Oc1c(Cl)cc(Cl)cc1C(c1ccccc1)N1CCCC1 (centres undefined) | -6 | -5
CC(NC(=O)CCCC(=O)N(C)C)c1c(Cl)ccc(F)c1Cl (centres undefined) | 1 | 6
Cc1ccc(-c2cnn3c(N4CCOCC4)cc(C)nc23)cc1 | 9 | 4
O=C(O)C1COc2c(O)cccc2C1 (centres undefined) | 11 | 2
CCC(=O)N(c1nnc(SC(C)C(=O)N2CCNC2=O)s1)C1CC1 (centres undefined) | 8 | 7
CN1CC2(CCCN(C(=O)c3ncccc3O)C2)OC1=O (centres undefined) | 9 | 18
COc1ccc(OC)c(NC(=O)CNC(C)c2ccc(F)c(F)c2)c1 (centres undefined) | -1 | 0
COC(C(=O)Nc1ccnn1C1CCN(C(=O)c2cnsn2)CC1)c1ccccc1 (centres undefined) | -2 | -1
